From PubChem
Tgondii IFNg: inhibitors of Toxoplasma gondii growth with IFN-gamma; Toxoplasma gondii growth in IFN-gamma-treated host cells; stronger effect = lower value; reference of the scale not given here; activity change, negative = inhibition, %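 (about 20 µM by stock and volumes)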; 69,000 compounds, 3.8% hits; AID 1259416;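 active = below -70%; inconclusive = fit judged invalid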;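 also: host cells are HeLa cells infected with Toxoplasma gondii; parasite growth read as luciferase light; one replicate is shown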
* marks the source's active call; other numbers are inactive results; ? = inconclusive; & = joins results of further samples.

molecule,Tgondii IFNg
CCCc1cc(C(=O)N2CCCC3(CC2)CNC(=O)O3)cs1 (stereo not given),69.8
CCOc1ccc(-c2nc(Cn3ccn4nc(-c5ccc(C)cc5)cc4c3=O)c(C)o2)cc1,21.4
CCn1c(C(C)N2CCCC2)n[nH]c1=O (stereo not given),11.3
CCCCC1C(=O)N(C)CCN1C(=O)c1cc(NC(C)=O)ccc1Cl (stereo not given),69.3
C[C@@H]1CN([C@@H](C)CO)C(=O)c2ccccc2-c2ccccc2CO[C@@H]1CN(C)C(=O)[C@@H](Cc1ccccc1)N(C)C,50.0
CC1Cc2ccccc2N1C(=O)Cn1nc(SCc2ccccn2)nc1N (stereo not given),8.4
O=C1CSC(=O)N1C/C=C/CN1C(=O)CSC1=O,1.5
O=C(CC1N=C2c3ccccc3N=C(SCc3ccccc3F)N2C1=O)NCc1ccc2c(c1)OCO2 (stereo not given),23.9
Cc1ccc(S(=O)(=O)CCN2C=CC(C(F)(F)F)=NCC2)cc1,57.0
COc1cccc(CNC(=O)Cn2c(=O)cc(-c3nc(C(C)C)no3)c3ccccc32)c1,-0.3
C[C@@H]1CN([C@@H](C)CO)C(=O)c2cc(NS(=O)(=O)c3ccccc3)ccc2O[C@@H](C)CCCCO[C@H]1CN(C)C(=O)C1CCCCC1,-14.8
CC(=O)N1CCN(c2ccc3ccc(C(=O)NCCc4ccccc4)cn23)CC1,12.7
CCc1ccc(Nc2nc(C(=O)NCc3ccccc3)nc3ccccc23)cc1,-28.3
CCN(Cc1nc(COC)no1)C(=O)c1ccc(F)cc1OC,6.0
COc1cccc(CNC(=O)Cn2ncc3c(N4CCOCC4)ncnc32)c1,64.1
COc1cc(NC(=O)C2CCCN2)ccc1-n1cccc1 (stereo not given),113.9
Cn1c(CN2CCCCC2)nc2cc(NC(=O)COc3ccc4c(c3)OCO4)ccc21,-12.0
COc1ccc(-c2n[nH]c(=S)n2Cc2ccccc2)cc1,52.7
CC(C)CCN1C2(CCN(C(=O)CN(C)C)C2)c2ccccc2S1(=O)=O (stereo not given),12.2
COc1ccc(C(=O)N2CCC3(CC2)NC(=O)c2cc(C)ccc2N3C)c(OC)c1,53.2

Next section:
molecule,Tgondii IFNg
Cc1ccc(CN2CCC3O[C@H](COCC4CCOCC4)CCC32)o1 (stereo not given in full),4.9
O=C(O)c1cc([N+](=O)[O-])ccc1NCCCc1ccccc1,29.6&23.7
CCc1nnc(NC(=O)c2ccoc2COc2ccc(C)cc2)s1,-25.3
Cc1ccc(-c2noc(-c3nnn(Cc4nc(-c5cccc(C)c5)oc4C)c3C)n2)cc1,1.4
CS(=O)(=O)N(CC(=O)N1CCCc2ccccc21)c1sc2c(c1C#N)CCCC2,-33.7
CC(=O)N1CCCc2sc(C(=O)N3CCC(N(C)C)CC3)nc21,-31.6
Cc1ccc(-c2ncc(CN3CCN(S(=O)(=O)N4CCCC4)CC3)cn2)cc1,6.1
Cc1cc(NC(=O)c2c(O)c3cccnc3n(-c3cccc(F)c3)c2=O)ccc1F,-36.4
C[C@@H]1C[C@H]2[C@@H]3C[C@H](F)C4=CC(=O)C=C[C@]4(C)[C@@]3(Cl)[C@@H](O)C[C@]2(C)[C@H]1C(=O)COC(=O)C(C)(C)C,-1.0
Cc1noc(C)c1NC(=O)N1C[C@H](O)COC[C@H]2O[C@@H](CC(=O)N[C@H]3CCN(Cc4ccccc4)C3)CC[C@@H]21,15.4
C[C@@H]1CN([C@H](C)CO)C(=O)c2cccc(NC(=O)Nc3ccc4c(c3)OCO4)c2O[C@@H]1CN(C)S(C)(=O)=O,12.2
FC(F)(F)c1ccc(NCC2CNCCOC2)nc1 (stereo not given),4.7
COc1ccc2c3c(n(C)c2c1)[C@H](CO)N(C)CC31CCN(C(=O)CN2CCOCC2)CC1,0.3
CCn1ncc(-c2cc(C(=O)Nc3cc4c(cc3Cl)NC(=O)CO4)on2)c1C,14.4
c1ccc(CCNCC2Cn3nncc3CO2)cc1 (stereo not given),-11.7
NC1CSC(CCCCC(=O)O)C1N (stereo not given),16.0
N#C[C@@H]1[C@@H](c2ccc(C#Cc3ccccc3F)cc2)[C@@H](CO)N1C(=O)c1cccnc1,-13.5
Cc1ccc(C(=O)CSc2nc(C)cc(SCC(N)=O)n2)cc1,24.8
COCCN1CC[C@H]2CN(C(=O)c3ccsc3)C[C@H]2C1=O,-2.3
COc1ccc(CNC(=O)C[C@H]2C=C[C@@H](NC(=O)c3cccc(F)c3)[C@H](CO)O2)cc1,-34.7

Additional records
molecule,Tgondii IFNg
CC(C)n1cnc2c(-c3cccnc3)nc(C3CCN(C(=O)c4ccccn4)CC3)cc21,144.5
CN(C)C(C(=O)NCc1ccc(N2CCCCC2)cc1)c1ccc(F)cc1 (stereo not given),-14.6
CS(=O)(=O)N1CCN(c2ccc3ccc(C(=O)NCCc4ccccc4)cn23)CC1,16.6
Cc1onc(-c2c(F)cccc2Cl)c1C(=O)OCc1sccc1-n1c(C)ccc1C,26.0
CC(C(=O)N1CCCC1)n1c2ccccc2c2cnn(C)c(=O)c21 (stereo not given),-65.6
O=c1oc(C(c2ccccc2)C2CCCC2)nc2cccc(F)c12 (stereo not given),-37.9
O=C1CC2C(CCN2c2cnccn2)N1 (stereo not given),9.1
COc1nc2ccccc2cc1-c1c(-c2ccccc2)ncn1CCc1cnc[nH]1,-63.6
Cc1cccc(C)c1CN1CCC2(CC1)CC(NC(=O)C1CC1)CCO2 (stereo not given),83.2
O=c1[nH]nc(C(O)c2ccccc2)n1Cc1cccs1 (stereo not given),-7.4
CN(C)c1cc(N(C)Cc2cc(C(C)(C)C)n[nH]2)ncn1,-1.7
CN1CC2CCCC(C1)C2CC(=O)Nc1cccc(F)c1 (stereo not given),1.5
NCCC1CN(c2nc(-c3ccccc3)nc3c2CCNC3)CCO1 (stereo not given),-45.9
CCn1c(CC2CCNCC2)nn(CC2CC(c3ccccc3)=NO2)c1=O (stereo not given),-3.5
COc1ccc2[nH]c(=O)c(CNC3CCCCC3)cc2c1,3.7
O=C(C[C@H]1CC[C@H](NS(=O)(=O)c2ccc(F)cc2)[C@H](CO)O1)N1CCN(c2ccccc2)CC1,-19.5
CCS(=O)(=O)Nc1ccc2c(c1)C(=O)N(C)[C@@H]1CC[C@H](CC(=O)N[C@H]3CCN(Cc4ccccc4)C3)O[C@H]1CO2,-1.1
CS(=O)(=O)NC1CCN(CCOCc2ccccc2)CC1,-4.7
COc1ccccc1C(=O)Nc1ccc2c(c1)C(=O)N(C)[C@H]1CC[C@H](CC(=O)Nc3cccc(C(C)C)c3)O[C@@H]1CO2,-68.9
C=CCN(Cc1ccccc1OC)C(=O)C/C=C/C,-6.0

Following part
Structure,Tgondii IFNg
CN(Cc1csc(-c2ccccc2)n1)Cc1cc2n(n1)CCNC2,1.5
CC(=O)c1[nH]c(C)c(C(=O)N2CCC(O)(c3ccc(C)cn3)CC2)c1C,18.2
O=C(CCSc1ccc(Cl)cc1)NCc1ccccn1,-40.0
COC(=O)c1cn(C(=O)c2cccc(C)c2)c2ccccc12,8.5
Cc1[nH]cnc1CN(C)CC1CCN(CC(C)C)C1 (stereo not given),-3.2
Cc1nc(C)c(C(=O)N2CCCC2c2ccc(Cc3cccc(F)c3)cn2)o1 (stereo not given),4.0
CC(=O)N1CCCC2(C1)Nc1cccnc1NC2=NCc1ccccc1 (stereo not given),64.7
Cc1nn(C(=O)Cn2nc(C)c(Br)c2C)c(C)c1Cl,3.5
Cc1nn(-c2cc(N3CCCCC3)ncn2)c(C)c1CCC(=O)NC1CCCCC1,-7.1
CCCC(=O)N1CC2(CN(C(=O)NC(C)C)C2)c2c([nH]c3cc(OC)ccc23)[C@@H]1CO,?

Next structures follow.
Structure,Tgondii IFNg
CO[C@@H]1CN(C)C(=O)c2ccc(NS(=O)(=O)c3c(C)noc3C)cc2OC[C@@H](C)NC[C@@H]1C,62.8&-40.0
CN1C(=O)c2cc(NC(=O)c3cccc(F)c3)ccc2OC[C@@H]2O[C@@H](CC(=O)NCC3CCCCC3)CC[C@@H]21,-46.4
CC1(CNC(=O)C2CC(=O)N(C3CCCCC3)C2)COC1 (stereo not given),-4.1
COc1ccc(-c2nc(C(=O)Nc3ccnn3C3CCN(C)CC3)cs2)cc1,-30.7
O=C(NCC1(c2ccccc2)CCOCC1)c1cc(C2CC2)[nH]n1,-2.8
Cc1nccn1CCC1CCN(C(=O)c2cccc(C3CCNC3)c2)CC1 (stereo not given),-51.4
CC(C)CN1C[C@]23CN(C(=O)C4CCC4)C[C@@H](C[C@H]2S1(=O)=O)O3,1.9
CC1=CC[C@@H]2CN(C(=O)c3nc(=O)[nH]c4ccccc34)C[C@@H]2C1,4.9
COC(=O)c1sccc1-n1c(C)ccc1C,1.6
COCCN1CCC(Cn2ccnc2-c2nccn2C)C1 (stereo not given),2.0

More compounds:
Structure,Tgondii IFNg
O=C(CC1N=C2c3ccccc3N=C(SCc3cccc(F)c3)N2C1=O)NC1CCCCC1 (stereo not given),-6.2
O=C(Cc1csc(NCC2CCCO2)n1)Nc1ccccc1 (stereo not given),26.5
CCn1c(C2CCN(S(=O)(=O)c3cccc(OC)c3)CC2)nn(C)c1=O,64.1
CN(C)CCN1C[C@H](NC(=O)c2cccn2C)[C@@H]2OCCC[C@@H]21,-1.4
COc1ccc(-c2nc(CN(c3ccccc3OC)S(=O)(=O)c3ccc(C)cc3)c(C)o2)cc1,-34.3
N#Cc1cccc(CN2Cc3nccn3CC(Cn3cccn3)C2)c1 (stereo not given),5.8
CCCn1c(/C=C/C2=CCN(C)CC2)nc2ccccc21,8.4
COc1ccc(-c2nc(Cn3nnc(-c4nc(-c5ccccc5Cl)no4)c3C)c(C)o2)cc1,-3.6
O=C(CN1C(=O)c2ccccc2S1(=O)=O)Nc1ccc2ccccc2c1,-19.0
Cc1cc(C2CCC2)nc(N2CC(N3CCCCC3C)C2)n1 (stereo not given),-17.0

Additional compounds
Structure,Tgondii IFNg
CCCN1C(=O)CCc2cc(NC(=O)Cc3ccc(Cl)cc3)ccc21,-8.9
CS(=O)(=O)N1CCn2cc(Cn3cccn3)nc2C1,5.3
O=C(NCc1cnn2ccccc12)C1CCOC1 (stereo not given),5.9
O=C(O)CSCCCC(=O)Nc1ccc(Br)cc1,-3.1
Cc1ccc(Oc2ncccc2CNC(=O)C2Cc3ccccc3C(=O)N2)cn1 (stereo not given),-3.2
CC(C)(C)c1cc2nc(C(F)(F)F)cc(N3CCN(C(=O)c4ccccc4)CC3)n2n1,-85.8*
COc1cc(CN(C)Cc2cccc3ncccc23)cc(F)c1O,51.5
CCN(CC)Cc1cn2c(n1)CN(C(=O)c1cnoc1C)CC2,6.0
CCOC1COC2(CCN(Cc3ccc4c(c3)OCO4)CC2)C1 (stereo not given),-26.5
Cc1cc(C(=O)N2CCCC(C(=O)c3ccc(-c4ccccc4)c(F)c3)C2)nc(C)n1 (stereo not given),-0.2

(further entries)
Structure,Tgondii IFNg
COc1ccccc1CNC(=O)C[C@@H]1CC[C@H]2[C@H](COc3ccc(NC(C)=O)cc3C(=O)N2C)O1,9.9
CCN(CC)Cc1c[nH]c2c(C(=O)OC)cccc12,-13.7
CC(C)C#Cc1ccc([C@H]2[C@@H](CO)N3C(=O)CN(C(=O)NC4CCCC4)C[C@H]23)cc1,-35.1
C=CCOC(=O)C1=C(C)NC(=O)NC1/C=C/c1ccccc1OC (stereo not given),-33.6
COc1cccc(-c2[nH]ncc2C(=O)NCc2cccnc2-n2ccnc2)c1,-8.8
COc1ccc(S(=O)(=O)C2CS(=O)(=O)CC2O)cc1 (stereo not given),-8.4
CC(=O)c1ccccc1-c1ccc2ccccc2n1,-4.7
Cc1nc(-c2cccc(F)c2)sc1CCNC(=O)C(=O)Nc1cccc(Cl)c1C,-2.8
CC1=C(C(=O)NCCN2CCOCC2)C2(CCN(S(=O)(=O)c3cccs3)CC2)OC1=O,39.1
O=C(CCC1Nc2c3ccccc3nc(=S)n2C1=O)NCc1cccs1 (stereo not given),11.4

An excerpt of these results, field by field:
Molecule: C=CCOC(=O)C1=C(C)NC(=O)NC1/C=C/c1ccccc1OC (stereo not given)
  Tgondii IFNg: -33.6

Molecule: O=C(CCC1Nc2c3ccccc3nc(=S)n2C1=O)NCc1cccs1 (stereo not given)
  Tgondii IFNg: 11.4

Molecule: COc1ccccc1CNC(=O)C[C@@H]1CC[C@H]2[C@H](COc3ccc(NC(C)=O)cc3C(=O)N2C)O1
  Tgondii IFNg: 9.9

Next records:
Structure,Tgondii IFNg
CN1C(=O)NC2(O)C(=O)c3ccccc3C12O (stereo not given),14.8
Cc1cnc(C(=O)N2CCC3(CCCc4ccccc43)CC2)cn1,-16.6
CCOC(=O)COc1nc2ccc(Cl)cc2c(-c2ccccc2)c1C(C)=O,-22.8
CC(Cc1ccccn1)NS(=O)(=O)CCN1C(=O)CCC1=O (stereo not given),-7.5
CC(C)Cc1ccc(C(C)c2nc(-c3ccc(Cl)cc3)no2)cc1 (stereo not given),-4.6
Cc1ccc2cc(C3(O)CCN(C(=O)CN4CCOC4=O)CC3)ccc2n1,2.4
COCc1ccc(C(=O)N2CCc3ncc(-c4ccc(OC)c(OC)c4)cc3C2)cc1,-15.1
CCC(NC(=O)c1cc2cccc(C)c2nc1C)c1c(C)nn(CC)c1C (stereo not given),-9.7
CC(C)(C)c1nc(N)sc1Br,93.7
Cc1nnsc1C(=O)N1CCN(c2ccccn2)CC1,-5.6
COc1ccccc1NC(=O)c1cccc(-c2cc3ccccc3oc2=O)c1,26.3
CCOC(=O)CSc1nc(Cc2ccccc2)nc2ccccc12,-4.2
C=C(C)COc1cccc(CN2CCC3(CC2)CNC(=O)C3)c1,-10.1

At a glance, 4 of the compounds above:
Structure,Tgondii IFNg
Cc1nnsc1C(=O)N1CCN(c2ccccn2)CC1,-5.6
COc1ccccc1NC(=O)c1cccc(-c2cc3ccccc3oc2=O)c1,26.3
CCOC(=O)CSc1nc(Cc2ccccc2)nc2ccccc12,-4.2
C=C(C)COc1cccc(CN2CCC3(CC2)CNC(=O)C3)c1,-10.1

The list is partial (hit frequency here may not be typical).
